Compound activity as filed in PubChem.
BJeLR viability = kills HRASV12-expressing BJeLR cells | BJeLR (HRASV12) viability, CellTiter-Glo ATP luminescence, 48 h; reference of the scale not given here | inhibition, % (concentration not given with the values) | 0.17% of 300,000 active;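 active = replicate mean above 50%; inconclusive = above 50% but judged a plate artefact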;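 also: 50 nL library stock added to about 25 µL; numbers are from one replicate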
Mtb hypoxia rep = Mtb hypoxia fluorescent reporter inhibition. M. tuberculosis hypoxia-regulated fluorescent reporter, fluorescence. AID 1159583. 0.1% of 300,000 active. fluorescence inhibition, % (concentration not given with the values);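 active = 35 to 45% if threefold the growth effect, above 45% if 1.5-fold the growth effect; inactive = the rest, general growth blockers included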;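 also: wells of about 50 µL received 100 nL stock; 0% = vehicle wells and 100% = reference inhibitor wells; whole bacteria with a GFP reporter of the hypoxia response; strong numbers were not always called active; many hits fall short of the cut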
PrP 5UTR inh = suppresses PrP 5' UTR mRNA reporter expression. cell-based PrP 5' UTR mRNA reporter, plate reader. inhibition, % (test concentration not listed). 0.35% of 340,000 active. AID 488862;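 active = every replicate at 50% or more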;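 also: 0 = median of the neutral control wells; tested in H4 reporter cells; numbers are from one replicate; inactives centre near -14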
RN4220 kill = kills Staphylococcus aureus RN4220; S. aureus RN4220 growth, OD600, 16 h; inhibition, % (test concentration not listed); 0.33% of 330,000 active;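 active = z-score of -3 or lower and OD600 up to 0.18 on both plates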;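 also: plate controls were untreated cells for no effect and reference antibiotic for full effect; stock transfer was 100 nL into about 80 µL; one replicate is shown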
ugtP null kill = growth inhibition of S. aureus ugtP deletion strain; growth inhibition, % (no concentration beside the values); 0.54% of 330,000 active; AID 1259309; S. aureus RN4220 ugtP deletion, OD600 growth, 16 h; some inactives read as strong as hits;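 active = z-score under -3 and OD600 up to 0.15 on both plates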;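 also: plate controls were untreated wells for no effect and antibiotic for full effect; wells of about 80 µL received 100 nL stock; the first replicate is given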
Bead autofluor = flagged as autofluorescent in microsphere protease counterscreen. compound autofluorescence counterscreen, microsphere flow cytometry; stronger effect = higher value. fluorescence intensity (concentration not given with the values). 3.1% of 360,000 active. AID 624483;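 active = at least 3 SD above the mean of all compounds, about 16000 in these data; inconclusive = too few beads counted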;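 also: 100 nL of 1 mM stock went into each well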
Mtb hypoxia rep growth = also measured in Mtb hypoxia rep; calls as there; growth inhibition, %; measured here: M. tuberculosis growth (absorbance);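 0% = vehicle and 100% = reference antibiotic; read after six days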
Numbers without * were called inactive; ? = inconclusive; / = no result given; & = joins results of further samples.

entry	canonical_smiles	BJeLR viability	Mtb hypoxia rep	Mtb hypoxia rep growth	PrP 5UTR inh	RN4220 kill	ugtP null kill	Bead autofluor
1	COc1cccc(N(CC(=O)NCC2CCCO2)C(=O)CCC(=O)Nc2nccs2)c1 (configuration not stated)	-16	-1	3	-9	5.6	-1	4071
2	COc1ccccc1NS(=O)(=O)c1ccc(C(=O)N2CCN(c3ccccn3)CC2)cc1	/	1	5	-20	4.5	-4	5742
3	Cc1ccc(S(=O)(=O)/N=C(/Nc2nc(C)cc(C)n2)N2CCOCC2)cc1	6	/	/	-16	/	/	15630
4	CC(=NNC(=O)c1n[nH]c2c1CCC2)c1cccs1	/	6	-9	/	1.7	2	/
5	COc1ccc(-c2ccc(-c3noc(C(C)C)n3)c(OC)n2)cc1	7	-5	10	-53	3.5	-19	/
6	CC(C)(C)OC(=O)NC(C=Cc1ccccc1)C(=O)OC(C)(C)C (configuration not stated)	/	7&11	12&10	/	-6.0&0.3	1&4	/
7	COc1ccc2c(c1)c(C(C)=O)c(C)n2CCc1ccccc1	12	7	0	-6	5.2	6	3203
8	CC(=O)Nc1c2c(nn1-c1ccc(C)cc1)CSC2	-4	-1	-3	-9	2.6	9	?
9	CCCCN1CCC(O)(c2ccccc2)C(C(=O)c2ccccc2)C1 (configuration not stated)	-9	2	11	-17	-0.5	11	3257
10	COC(=O)c1c(NC(=O)Cc2ccccc2)sc2c1CC(C)(C)NC2(C)C	2	5	-1	9	4.4	13	5188
11	O=C(CCCc1nc2ccccc2s1)N1CCN(c2ccccc2F)CC1	-1	-1	-7	-16	7.0	7	2240
12	CCCNS(=O)(=O)c1ccc(OCC(=O)NCc2ccco2)cc1	4	2	4	-23	4.6	-10	10662
13	Clc1ccc(-c2nnc(-c3ccccc3)o2)cn1	0	21	13	-41	4.0	6	4081
14	CCCc1nc(NCc2ccco2)c(C#N)c2c1COC(C)(C)C2	20	-1	6	-7	2.4	7	2920
15	CSc1nnnn1-c1ccc(C)c(Cl)c1	-2	7	9	-14	5.8	-3	10784
16	Cc1c(Cl)cccc1NC(=O)Cn1nnc(C(=O)NCc2cccs2)c1N	3	-1	6	-14	1.0	11	2226
17	Cc1n[nH]c(=O)nc1N/N=C/c1cccs1	4	/	/	-29	/	/	2109
18	C=CCSc1nc2c(c(=O)[nH]1)C(C(C)C)C(C#N)=C(N)O2 (configuration not stated)	0	/	/	-30	7.6	0	5604
19	Cc1cc2c(SCC(=O)NCC3CCCO3)ncnc2s1 (configuration not stated)	-14	17	15	5	0.1	2	6364
20	OC(CCN1CCCCC1)(c1ccccc1)C1CC2C=CC1C2 (configuration not stated)	/	-7	0	/	3.5	-3	/

An excerpt from above in order of count of non-hydrogen atoms, ascending.
entry	canonical_smiles	BJeLR viability	Mtb hypoxia rep	Mtb hypoxia rep growth	PrP 5UTR inh	RN4220 kill	ugtP null kill	Bead autofluor
17	Cc1n[nH]c(=O)nc1N/N=C/c1cccs1	4	/	/	-29	/	/	2109
13	Clc1ccc(-c2nnc(-c3ccccc3)o2)cn1	0	21	13	-41	4.0	6	4081
18	C=CCSc1nc2c(c(=O)[nH]1)C(C(C)C)C(C#N)=C(N)O2 (configuration not stated)	0	/	/	-30	7.6	0	5604
11	O=C(CCCc1nc2ccccc2s1)N1CCN(c2ccccc2F)CC1	-1	-1	-7	-16	7.0	7	2240

Other results
entry	canonical_smiles	BJeLR viability	Mtb hypoxia rep	Mtb hypoxia rep growth	PrP 5UTR inh	RN4220 kill	ugtP null kill	Bead autofluor
21	COc1ccc(N2CC(C(=O)NCCc3ccc(OC)c(OC)c3)CC2=O)cc1 (configuration not stated)	6	-8	9	-4	1.6	-3	22233*
22	Cc1ccc(OCc2nnc(SCC(=O)NC3CCCCC3)n2C)cc1	2	-6	9	-16	7.0	-2	2889
23	COc1ccc(OC)c(S(=O)(=O)N2CCC(C(=O)N3CCN(c4ccc(F)cc4)CC3)CC2)c1	-1	8	-2	2	0.1	5	6159
24	O=C(CSc1nc(-c2ccccc2)cc(=O)[nH]1)NCc1ccc2c(c1)OCO2	-3	3	0	-10	5.9	-3	3410
25	COc1ccc(C2NC(=O)NC(C)=C2C(=O)OCC2CCCCC2)cc1OC (configuration not stated)	2	3	5	2	3.4	-1	3426
26	O=C(c1cc(-c2cccnc2)nc2ccc(Cl)cc12)N1CCC2(CC1)OCCO2	-5	/	/	-12	-2.0	6	2027
27	C[C@@H]1[C@H]2[C@@H](O[C@@H]3O[C@H](CO)[C@@H](O)[C@H](O)[C@H]3O)OC=C(C(=O)O)[C@H]2C[C@@H]1O	0	/	/	-39	4.2	2	6063
28	O=C(NCCCN1CCOCC1)c1ccc(Cl)s1	4	-3	0	-4	2.4	7	8313
29	OC1CCC(NC(=S)Nc2ccc(SC(F)F)cc2)CC1 (configuration not stated)	9	1	14	-6	1.6	-2	3168
30	CC(C)=CCC/C(C)=C/CNC(=O)C[C@H]1C[C@H](C(=O)N2CCOCC2)[C@@]2(C)c3[nH]c4cc(CCC(=O)N(C)C)ccc4c3CCN2C1=O	/	-4	5	1	-0.7	7	4205

Reprinted at random: six compounds from above, in no set order.
entry	canonical_smiles	BJeLR viability	Mtb hypoxia rep	Mtb hypoxia rep growth	PrP 5UTR inh	RN4220 kill	ugtP null kill	Bead autofluor
22	Cc1ccc(OCc2nnc(SCC(=O)NC3CCCCC3)n2C)cc1	2	-6	9	-16	7.0	-2	2889
25	COc1ccc(C2NC(=O)NC(C)=C2C(=O)OCC2CCCCC2)cc1OC (configuration not stated)	2	3	5	2	3.4	-1	3426
30	CC(C)=CCC/C(C)=C/CNC(=O)C[C@H]1C[C@H](C(=O)N2CCOCC2)[C@@]2(C)c3[nH]c4cc(CCC(=O)N(C)C)ccc4c3CCN2C1=O	/	-4	5	1	-0.7	7	4205
26	O=C(c1cc(-c2cccnc2)nc2ccc(Cl)cc12)N1CCC2(CC1)OCCO2	-5	/	/	-12	-2.0	6	2027
21	COc1ccc(N2CC(C(=O)NCCc3ccc(OC)c(OC)c3)CC2=O)cc1 (configuration not stated)	6	-8	9	-4	1.6	-3	22233*
29	OC1CCC(NC(=S)Nc2ccc(SC(F)F)cc2)CC1 (configuration not stated)	9	1	14	-6	1.6	-2	3168

Next part
entry	canonical_smiles	BJeLR viability	Mtb hypoxia rep	Mtb hypoxia rep growth	PrP 5UTR inh	RN4220 kill	ugtP null kill	Bead autofluor
31	CC[C@@H]1[C@H]2CCCC(=O)N3CC[C@@H](C[C@@H]1Nc1ccccc1)[C@@H]23	-6	/	/	-19	/	/	3381
32	Cc1nc(SCc2nc3ccc(C(=O)c4ccccc4)cc3[nH]2)c2oc3ccccc3c2n1	/	1	12	-8	0.2	-9	3392
33	CCc1cc2ccc(C)c(C)c2nc1SCC(=O)Nc1cc(C)on1	-5	4	0	-15	1.2	10	5335
34	O=C(Nc1cc(Sc2nc3ccccc3s2)cc([N+](=O)[O-])c1)c1cccc(F)c1F	-2	3	10	-3	-9.4	-17	1913
35	CCOC(=O)C[C@H]1c2cc(F)ccc2S(=O)(=O)N1c1ccccc1	0	/	/	-20	/	/	4201
36	COc1ccccc1N1CC(C(=O)Nc2ccc(C)c(S(=O)(=O)N3CCOCC3)c2)CC1=O (configuration not stated)	/	14	9	-16	6.1	-1	3948
37	COc1ccc(S(=O)(=O)N2CCCCC2)cc1NC(=O)c1cccc(S(=O)(=O)N2CC(C)OC(C)C2)c1 (configuration not stated)	/	6	3	-9	4.0	5	4062
38	CCN1CCN(c2cc(C)c3cc(NC(=S)NCCN(C)C)ccc3n2)CC1	-2	-3	7	-18	-1.1	14	3673
39	COc1ccc(CCNC(=O)C2CC(=O)N(CCc3ccccc3)C2)cc1OC (configuration not stated)	10	13	8	-16	8.6	6	4028
40	CCCn1ncc(CN2CCN(CCc3ccccc3)C(CCO)C2)c1C (configuration not stated)	0	14	2	-3	0.4	3	3011
41	C=CCOc1cccc(CNCc2ccncc2)c1	0	3	-2	-11	4.5	0	4394
42	CCCN1CCN(CCCNC(=O)c2ccc3c(=O)n(CCc4ccccc4)c(=O)[nH]c3c2)CC1	3	7	5	5	1.3	6	6019
43	CC(C)(C)C(O)C(Cc1ccccc1Cl)n1cncn1 (configuration not stated)	-12	11	11	-2	8.2	9	3068
44	CC(C)(NO)C(=NO)c1ccc(Br)cc1	/	4	6	/	7.2	0	/
45	COc1ccccc1NC(=O)c1ccc(-n2cccn2)c([N+](=O)[O-])c1	6	-4	0	-4	2.8	-2	4811
46	CCN=c1scc(-c2ccc3c(c2)NC(=O)CO3)n1N=C1CCCC1	9	3&3	5&8	1&-2	12&10	0&2	2872&3013
47	CCOP(=O)(OCC)C(NC(=O)c1ccc(OC)cc1)c1ccccc1 (configuration not stated)	-9	11	-2	40	3.9	5	4844
48	N#C/C(=C\c1ccc(O)c(Br)c1)C(=O)N1CCCCC1	-8	11	1	-21	5.9	9	3914
49	CCn1c(SCC(=O)NCc2ccc3c(c2)OCO3)nnc1-c1ccncc1	13	10	8	41	9.3	2	3258
50	COc1ccc(-n2c(=O)c3c4c(sc3n(CC(=O)Nc3cc(C)[nH]n3)c2=O)CCCC4)c(OC)c1	6	-10	-4	4	3.1	-1	3957
51	O=C(NC1CCN(Cc2ccccc2)CC1)c1ccccc1OCc1ccccc1	16	17	18	-17	5.8	8	4915
52	COc1cccc(C(=O)NCC2CCCN2S(=O)(=O)c2ccccc2)c1 (configuration not stated)	-3	-9	4	-12	2.2	2	8555
53	CN1C(=O)N(CC(=O)Nc2cccc(S(=O)(=O)N(C)c3ccccc3)c2)C(=O)C12CCCCC2	/	-1	-5	-33	3.7	9	4485
54	CC1=C(C(=O)N2CCOCC2)C(c2c(F)cccc2F)NC(=O)N1 (configuration not stated)	1	-1	-2	-9	7.0	3	3467
55	O=Cc1ccccc1Oc1nc(N2CCOCC2)nc(N2CCOCC2)n1	-3	6	2	-6	3.9	0	2212
56	CCCCN=CC1=C(O)CC(c2ccccc2)CC1=O (configuration not stated)	-2	-1	-2	-28	5.1	2	4896
57	CCC(=O)c1ccc(OCC(O)CNC2CCCC2)cc1 (configuration not stated)	-3	21	10	-26	-2.4	13	3493
58	CCN(CC)CCNc1nc(SC)nc2sc3c(c12)CCN(C)C3	-4	/	/	-15	/	/	4826
59	O=C(N/N=C/c1ccco1)c1cc(-c2ccncc2)nc2ccccc12	46	/	/	-28	/	/	5381
60	Cc1ccsc1C=NNC(=O)Cc1ccc([N+](=O)[O-])cc1	/	9	12	/	4.8	1	/
61	CC(=O)Nc1cc(C(=O)N2CCC3(CC2)OCCO3)ccc1S(=O)(=O)c1ccc(Cl)cc1	-7	3	8	-5	6.3	11	8092
62	O=C(CN1CCCCC1)Nc1cccc(Cl)c1Cl	-1	/	/	-21	2.3	-2	2360
63	[O-]C1=N/[N+](=C/c2ccccc2)CC1	5	13	0	-16	5.9	0	4927
64	COC(=O)c1sc(NC(C)=O)c(C(=O)OC)c1C	0	/	/	-13	2.7	0	4335
65	COc1ccc(OC)c2c1sc(=NC(=O)C(C)(C)C)n2C	0	3	1	-21	18	3	5249
66	O=C(CN1CCN(c2ccccc2)CC1)Nc1ccc(-n2cnnn2)cc1	-6	8	6	-18	1.2	3	9719
67	c1ccc(OCCN2CCN(Cc3nc(-c4ccc5c(c4)OCO5)no3)CC2)cc1	-1	0	1	-19	-1.9	3	2060
68	COCCNc1nnc(Cc2ccc(Cl)cc2)c(=O)[nH]1	-3	-2	-6	-3	1.4	4	3029
